Source: PubChem (National Center for Advancing Translational Sciences (NCATS))
2A Renilla: Primary qHTS Assay for Foot and Mouth Disease Virus Antivirals against NCGC Sytravon and CBC Compound Libraries: Renilla Luciferase Signal. HEK cells with a luciferase reporter of 2A StopGo recoding. Potency, µM (series often up to 57.5 µM), without a hit: at the highest dose signal change, negative = less light. 120,000 compounds, 0.32% hits; active means well fitted falling curve with a large enough effect; inconclusive means small, poorly fitted or top-dose-only effect; inactive means no such curve, though single readings can be large or run the other way; note: nearly all actives have a fitted effect of over 55% in size; overnight with compound
2A firefly: Primary qHTS Assay for Foot and Mouth Disease Virus Antivirals against NCGC Sytravon and CBC Compound Libraries: Firefly Luciferase Signal | HEK cells with a luciferase reporter of 2A StopGo recoding | 120,000 compounds, 0.23% hits | Potency, µM (highest dose often 57.5 µM), without a hit: at the highest dose signal change, negative = less light; active = well fitted falling curve with a large enough effect; inconclusive = small, poorly fitted or top-dose-only effect; inactive = no such curve, though single readings can be large or run the other way; note: nearly all actives have a fitted effect of over 60% in size; overnight with compound
An asterisk follows results filed as active; ? = inconclusive; [ ] = dose if it differs, or a comment. % is set by controls: 0 for no effect and ±100 for the full control effect; potency is the fitted concentration of half-maximal effect. Only part of the results is shown, so the mix of outcomes need not match the whole.

SMILES | 2A Renilla | 2A firefly
C=CCNc1nc(-c2ccc(S(=O)(=O)N3CCCCCC3)cc2)cs1 | 72%[activator] | 74%[activator]
COc1ccc(C2CC(=O)c3c(C)nc(Nc4ccccc4OC)nc3C2)cc1 (centres undefined) | -5% | 0%
Cc1cc(C(=O)Nc2ccccc2C(C)(C)C)c2ccccc2n1 | 13% | 2%
CCOC(=O)c1cc2cc(Oc3ccccc3)ccc2n1C | -4% | 143%[activator]
CCNc1c(NC(=O)c2cc(OC)ccc2Br)c(=O)oc2ccccc12 | 51%[activator] | 48%[activator]
CC(C)C(NC(=O)c1ccc(Cl)cc1)C(C)C | 0% | -11%
NNC(=O)c1ccc([N+](=O)[O-])cc1 | -1% | 84%[activator]
COc1ccc(-c2nc(SC(C)C(=O)NC3CC3)n[nH]2)c(OC)c1 (centres undefined) | 16% | 25%
Cc1nc(Oc2ccc(F)cc2)c2c3c(sc2n1)CCCC3 | 4% | 3%
Cc1ccc(NC(C)C(=O)Nc2sccc2C#N)cc1C (centres undefined) | 9% | 127%[activator]
Cc1ccc(CSc2nnnn2-c2c(C)n(C)n(-c3ccccc3)c2=O)cc1 | 3% | -5%
COc1ccc(-c2ocnc2C(=O)Nc2ccc(Cl)cc2)cc1OC | 23% | 47%[activator]
CCOc1ccc(S(=O)(=O)N(CC(=O)Nc2cccc(OC)c2)c2ccccc2)cc1 | 14% | -2%
COc1cc(Br)c(/C=C(/C#N)C(=O)c2ccccc2)cc1OC | 19% | 18%
Cc1ccc2oc(=O)cc(CN3CCCCC3)c2c1 | 8% | 5%
Cc1cc(C)cc(OCC(=O)Nc2ccc3oc(-c4ccncc4)nc3c2)c1 | -5% | 8%
Cc1cccc(C)c1NC(=O)CSc1ncnc2ccccc12 | -1% | 12%
CCc1cccc(OCCOC(=O)c2cc(C)nc3ccccc23)c1 | 17% | 19%
C=CCOc1ccc2c(c1)CCC1C2CCC2(C)C(=O)CCC12 (centres undefined) | ? | -28%
COc1cccc(NC(=O)Cn2c(=O)n(CCc3ccc(OC)c(OC)c3)c(=O)c3ccccc32)c1 | 0% | 24%
CCOc1ccc(CNCc2cccn2-c2nnc(N3CCN(C)CC3)s2)cc1 | 18% | 21%
Cc1nc(-c2ccccc2)sc1C(=O)N1CCN(Cc2ccccc2F)CC1 | -5% | 8%
Cc1ccc(CN(C(=O)COc2ccc([N+](=O)[O-])cc2)c2ccccn2)cc1 | 26% | 0%
CCCN1CCN(Cc2cc(C(C)=O)ccc2OC)CC1 | -2% | -6%
CCOc1ccc(CNC(=O)C2=Cc3cc(Br)ccc3OC2)cc1OC | -9% | -2%
Cc1sc(-c2cc3c([nH]c2=O)CC(c2ccccc2)CC3=O)nc1-c1ccc(Cl)cc1 (centres undefined) | 24% | 6%
CC(=O)c1c(C)[nH]c(C(=O)C(C)Sc2ccc(F)c(Cl)c2)c1C (centres undefined) | ? | ?
CCc1ccc(-c2nc3cc(NC(=O)c4ccc([N+](=O)[O-])o4)ccc3o2)cc1 | -7% | 160%[activator]
CC1CC(C)CN(C(=O)c2ccc(-c3ccccc3)cc2)C1 (centres undefined) | -30% | -11%
COc1cccc(NC(=O)CC2Sc3ccccc3NC2=O)c1 (centres undefined) | 11%[1.06 µM] | 51%[activator]
O=C(NCCc1nc(-c2ccccc2)no1)c1cc(=O)c2ccc(Br)cc2o1 | -2% | -10%
CCOC(=O)c1ccc(N2C(=O)c3n[nH]c(-c4ccco4)c3C2c2ccc(O)cc2)cc1 (centres undefined) | 10% | -18%
Cc1ccc(C(=O)C(C)Oc2ccc(C#N)cc2)cc1 (centres undefined) | 27% | 57%[activator]
COc1cc(NC(=O)CCS(=O)(=O)c2nc(-c3cccs3)cc(C(F)(F)F)n2)cc(OC)c1OC | -11% | -7%
CCCCc1nn2c(=O)cc(COC(=O)C(C)Oc3ccccc3)nc2s1 (centres undefined) | 3% | -6%
COC(=O)CNC(=O)C12CC3CC(CC(C3)C1)C2 | 13% | 14%
CCN(C(=O)CSc1nc(-c2ccccc2Cl)nc2cc(=O)[nH]n12)c1ccccc1 | 43%[activator] | 43%[activator]
Cc1ccccc1OCC(=O)Nc1ccc2nc(SCC(=O)N3CCCC3)sc2c1 | ? | ?
CC(/C=C/c1ccccc1)=N/NC(=O)C(c1ccccc1)c1ccccc1 | 15% | 9%
CC(C)c1cc(=O)oc2cc(OCC(=O)NC3(C#N)CCCCC3)ccc12 | 2% | 1%
COc1ccccc1O | 0%[114 µM] | -12%[22.9 µM]
Cc1ccc2c(=O)cc(C(=O)Nc3c(C(=O)Nc4cccc(Cl)c4)oc4ccccc34)oc2c1 | 2% | -14%
COc1ccc(CNC(=O)c2ccc3c(c2)NC(=O)CCS3)cc1 | 29% | 0%
COc1ccc(C=O)cc1C(C)(C)C | 0% | 8%
CCCc1noc(CN2CCN(C(=O)N3CCCCC3)CC2)n1 | 1% | 95%[activator]
COc1ccccc1Cc1nc2ccccc2nc1SCC(=O)NCc1ccc(C)cc1 | -15% | -6%
COc1ccccc1NC(=O)Cn1nnc(C(=O)NCc2cccs2)c1N | 65%[activator] | 104%[activator]
CC1(C)C(=O)OC(c2ccc(Br)cc2)C2(CCCCC2)C1=O (centres undefined) | 34% | 21%
Cc1cnc(C(=O)Oc2ccc(-c3ccc(C#N)cc3)cc2)cn1 | 10% | 0%
CCc1ccc2oc(=O)cc(CN3CCCCC3)c2c1 | -7% | 19%
N#Cc1ccccc1OCc1ccc(C(N)=O)cc1 | 11% | 208%[activator]
CCOc1ccc(CN2CCN(c3cccc(C)c3C)CC2)cc1 | ? | ?
Cc1oc(-c2ccc(Cl)cc2)nc1CS(=O)CC(=O)NCCc1ccccc1 (centres undefined) | -13% | 22%
Cn1c(=O)c2[nH]c(N3CCN(C(=O)C4CCCCC4)CC3)nc2n(C)c1=O | -5% | -9%
CCCCNC(=O)COc1c(Cl)cc(Cl)c2ccc(C)nc12 | 8% | 12%
O=C(CSc1ncnc2c1sc1cccc(F)c12)NCCN1CCN(Cc2ccccc2)CC1 | -20% | -20%
CN1c2ccc(Cl)cc2-c2nc(SCC(=O)Nc3cc(F)ccc3F)ncc2S1(=O)=O | 3% | -17%
CN(C)S(=O)(=O)c1cccc(S(=O)(=O)Nc2cccc(C#N)c2)c1 | 63%[activator] | 13%
CCOC(=O)N1CCc2c(sc3c2C(=O)NC(c2ccc(OC)cc2)N3)C1 (centres undefined) | 12% | 8%
COc1cccc(-c2nc(SCC(=O)NCc3ccco3)c3c(=O)n(C)c(=O)n(C)c3n2)c1 | 2% | -17%
New compounds follow.
SMILES | 2A Renilla | 2A firefly
Cn1c(=O)[nH]c(=O)c2c1nc(N1CCN(CCO)CC1)n2Cc1ccccc1F | -2% | -2%
Cc1ccccc1-n1c(/C=C/c2ccco2)nc2ccccc2c1=O | 16% | 25%
O=C(Nc1ccc(Cl)c(-c2nc3ccccc3o2)c1)c1cc([N+](=O)[O-])ccc1N1CCOCC1 | 10% | 2%
O=S(=O)(Nc1ccc(-c2ccc(N3CCCC3)nn2)cc1)c1cccc(C(F)(F)F)c1 | 176%[activator] | 0%
CC(C)c1nnc(NC(=O)C(Sc2ccccc2)c2ccccc2)s1 (centres undefined) | 2% | -9%
N#Cc1cccnc1Sc1ccc(F)c(Cl)c1 | 22% | 0%
CCOc1ccc(Nc2nc(Nc3ccc(OCC)cc3)nc(N3CCOCC3)n2)cc1 | -6% | -23%
CCN(CC)S(=O)(=O)c1ccc(N(C)C)c(NS(=O)(=O)c2cccs2)c1 | 126%[activator] | 17%
O=C1CC(C(=O)Nc2ccccc2)c2c(nc(SCc3ccccc3Cl)[nH]c2=O)N1 (centres undefined) | 16% | 30%[activator]
COc1ccc2nc(C)c(C(=O)OCC(=O)NCC3CCCO3)cc2c1 (centres undefined) | 10% | 23%
CCNC(=O)NC(=O)C(C)Sc1nc2ccccc2o1 (centres undefined) | 0% | 6%
O=C(CSc1nc2ccc(Cl)cc2o1)c1c[nH]c2ccccc12 | -10% | 12%
Cc1nc2cc(NC(C)C(=O)Nc3ccc(Cl)cc3)ccc2o1 (centres undefined) | -6% | -6%
CCOc1ccc(CCNC(=O)CS(=O)(=O)Cc2nc(-c3ccc(OC)cc3)oc2C)cc1 | -2% | -14%
COC(=O)N(C)CC(=O)NCc1cccc(C)c1 | 8% | 74%[activator]
CC(=O)Nc1cccc(-c2nc3cc(Cl)ccc3o2)c1 | 7% | 221%[activator]
O=C(NCc1ccccc1Cl)c1ccc2c(c1)NC(=O)C(CS(=O)(=O)Cc1ccc(F)cc1Cl)N2 (centres undefined) | 10% | -11%
CCCCNC(=O)c1cc2c(=O)n3cccc(C)c3nc2s1 | 7% | 51%[activator]
Cc1ccc(CN(C)C(=O)NC(c2ccc3c(c2)OCCCO3)C(C)C)c(C)c1 (centres undefined) | 15% | -3%
COc1ccccc1NC(=O)c1cc2c(-c3ccccc3)nn(-c3ccccc3)c2s1 | -5% | -14%

In the list so far, 8 contain a cyano group.
SMILES | 2A Renilla | 2A firefly
Cc1ccc(NC(C)C(=O)Nc2sccc2C#N)cc1C (centres undefined) | 9% | 127%[activator]
COc1cc(Br)c(/C=C(/C#N)C(=O)c2ccccc2)cc1OC | 19% | 18%
Cc1ccc(C(=O)C(C)Oc2ccc(C#N)cc2)cc1 (centres undefined) | 27% | 57%[activator]
CC(C)c1cc(=O)oc2cc(OCC(=O)NC3(C#N)CCCCC3)ccc12 | 2% | 1%
Cc1cnc(C(=O)Oc2ccc(-c3ccc(C#N)cc3)cc2)cn1 | 10% | 0%
N#Cc1ccccc1OCc1ccc(C(N)=O)cc1 | 11% | 208%[activator]
CN(C)S(=O)(=O)c1cccc(S(=O)(=O)Nc2cccc(C#N)c2)c1 | 63%[activator] | 13%
N#Cc1cccnc1Sc1ccc(F)c(Cl)c1 | 22% | 0%

The listing continues:
SMILES | 2A Renilla | 2A firefly
CC(CNc1ccc([N+](=O)[O-])c2cnccc12)c1ccccc1 (centres undefined) | ? | ?
Cc1cccc(Cn2cc(S(=O)(=O)c3ccc(Cl)cc3)c(=O)c3cc4c(cc32)OCO4)c1 | -4% | -16%
CCn1nc(C(=O)OCc2nc(-c3cccc(OC)c3)no2)c2ccccc2c1=O | -7% | 45%[activator]
CC(Oc1cccc(Br)c1)C(=O)NNC(=O)c1ccc2c(c1)NC(=O)CCS2 (centres undefined) | 4% | 17%
COc1ccc(-c2nc3cc(NC(=O)C(C)C)ccc3o2)cc1OC | 59%[activator] | 259%[activator]
Cc1ccc2nc(-c3cc(NC(=O)c4cccc(Cl)c4)ccc3O)oc2c1 | 1% | 22%
COC(=O)c1ccc(NC(=O)CN2CCN(c3ccc(Cl)cc3)CC2)cc1 | -10% | -7%
COc1cc(C2c3c(oc4ccccc4c3=O)C(=O)N2Cc2ccc(C)cc2)ccc1O (centres undefined) | ? | -5%
CC(=O)Nc1c(-c2ccc(C)cc2)c(C)nn1-c1ccc(C(=O)NCc2ccco2)cc1 | 4% | -7%
COc1ccc(/C=C(\NC(=O)c2ccc(C)cc2)C(=O)NC(CC(C)C)C(=O)O)cc1 (centres undefined) | 13% | 7%
O=C(CNC(=O)c1ccc(Cl)cc1)OCc1cc(=O)n2nc(C3CCCCC3)sc2n1 | -10% | -9%
C=CCN1CCN(c2nc3c(c(=O)[nH]c(=O)n3C)n2Cc2ccc(Cl)cc2)CC1 | -7% | 2%
COc1cccc(N2CCN(C(=O)C3Cc4ccccc4N3C(C)=O)CC2)c1 (centres undefined) | -6% | -15%
Cc1ccc(C)c(S(=O)(=O)NCC(=O)O)c1 | -2% | 0%
O=C(NC1CC(=O)N(c2ccccc2)C1)c1ccc(S(=O)(=O)N2CCCCC2)cc1 (centres undefined) | -11% | -27%
CCc1ccc(S(=O)(=O)c2cnc3ccc(C)cc3c2N2CCOCC2)cc1 | 41%[activator] | -19%
COc1cc(OC)cc(N2C(=O)CSC23C(=O)Nc2ccccc23)c1 (centres undefined) | -3% | -4%
Cc1ccc(Cl)cc1N1CCN(C(=O)CCCCCn2c(=O)[nH]c3ccccc3c2=O)CC1 | 41%[activator] | -8%
CC1CCN(C(=O)c2cccnc2-c2nc3ccccc3s2)CC1 | 28% | -1%
O=C(CN1CCCN(Cc2ccccc2Cl)S1(=O)=O)NCc1ccccc1 | 43%[activator] | -1%

Three entries from above, set out differently.
The line under a structure holds: 2A Renilla | 2A firefly
COc1cccc(N2CCN(C(=O)C3Cc4ccccc4N3C(C)=O)CC2)c1 (centres undefined)
    -6% | -15%
Cc1ccc(C)c(S(=O)(=O)NCC(=O)O)c1
    -2% | 0%
O=C(NC1CC(=O)N(c2ccccc2)C1)c1ccc(S(=O)(=O)N2CCCCC2)cc1 (centres undefined)
    -11% | -27%

Next part:
SMILES | 2A Renilla | 2A firefly
COc1ccc(-c2cc(C(=O)Nc3c(Cl)cccc3Cl)no2)cc1OC | 6% | 35%[activator]
COc1cccc(-c2noc(-c3cc(C(C)C)[nH]n3)n2)c1OC | 29% | 97%[activator]
O=C(O)[C@H](O)c1ccccc1 | -3% | -7%[11.5 µM]
CCCn1c(=O)sc2cc(NC(=O)c3ccc(OC)c(Br)c3)ccc21 | -4% | 14%
CNS(=O)(=O)c1cc(-c2nnc(Nc3ccc(C)cc3C)c3ccccc23)ccc1C | 126%[activator] | ?
CC1CCCN(C(=O)/C=C/c2cccs2)C1 (centres undefined) | 18% | 170%[activator]
COc1ccc2cc(C(=O)N3CCN(c4ccc(F)cc4)CC3)c(C)nc2c1 | -7% | -7%
OCCCN(Cc1ccccc1)C1CC1 | 0% | 4%
